Cruzain Triton: qHTS Assay for Promiscuous and Specific Inhibitors of Cruzain (with detergent) | Cruzipain (Trypanosoma cruzi), P25779 | purified cruzain, Z-FR-AMC fluorescence, 0.01% Triton | Potency, µM, for the others: max response, negative = inhibition, actives largely listed as inhibitors | 200,000 compounds, 0.43% hits | AID 1478, 2009;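 note: plate controls were neutral wells for no effect and buffer without enzyme for full effect; nearly all actives have a fitted effect of over 40% in size; top concentration of the series not given in the record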
Target sequence (P25779 123-467 limits assumed): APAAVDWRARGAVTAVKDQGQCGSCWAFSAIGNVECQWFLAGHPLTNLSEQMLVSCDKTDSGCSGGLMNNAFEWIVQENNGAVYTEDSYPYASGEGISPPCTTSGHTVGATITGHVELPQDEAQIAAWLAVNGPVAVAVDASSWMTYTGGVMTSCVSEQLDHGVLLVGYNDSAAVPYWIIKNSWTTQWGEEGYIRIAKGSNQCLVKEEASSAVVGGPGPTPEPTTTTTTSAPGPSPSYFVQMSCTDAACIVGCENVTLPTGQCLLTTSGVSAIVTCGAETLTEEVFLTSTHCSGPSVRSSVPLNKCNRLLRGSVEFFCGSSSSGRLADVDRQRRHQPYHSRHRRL
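Cysteine protease activity tested under reducing, mildly acidic conditions (100 mM sodium acetate pH 5.5, 5 mM DTT) plus 0.01% Triton X-100. Cruzain 1.5 nM; substrate Z-FR-AMC 2 uM; 15 min compound preincubation at room temperature.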
SARS PLpro yeast: qHTS of Yeast-based Assay for SARS-CoV PLP. 330,000 compounds, 0.19% hits. S. cerevisiae expressing SARS-CoV PLpro, growth rescue; control for the full effect not named in the record. Potency, µM (top dose mostly 32.9 µM), inactives show top-dose activity, positive = growth rescue; active means well fitted rising curve with a large enough effect; inconclusive means small, poorly fitted or top-dose-only effect; inactive means no such curve, though single readings can be large or run the other way; note: 0% is about no effect; nearly all actives have a fitted effect of over 55% in size; growth read by luminescence after 48 h
NS1 function inh: qHTS Assay for Inhibitors of Influenza NS1 Protein Function. S. cerevisiae slowed by influenza A NS1, growth recovery by OD600. Potency, µM (titrated, usually from 46.1 µM), without a hit: top-dose activity, positive = more growth. 270,000 compounds, 0.4% hits. AID 2326, 2010; active means well fitted rising curve with a large enough effect; inconclusive means small, poorly fitted or top-dose-only effect; inactive means no such curve, though single readings can be large or run the other way; note: nearly all actives have a fitted effect of over 50% in size
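OD600 was taken as the measure of yeast growth restored by compound in an NS1-expressing S. cerevisiae strain. Cells had been washed out of glucose medium and diluted 1:100 into galactose -URA medium, pH 6.0.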
Lassa entry inh: qHTS for Inhibitors of binding or entry into cells for Lassa Virus; Potency, µM (series often up to 37.9 µM), without a hit: at the top dose activity change, negative = inhibition, actives largely listed as inhibitors; 300,000 compounds, 1.2% hits; AID 540256, 2011; Lassa virus pseudotype entry inhibition, cell reporter; control for the full effect not named in the record; active means well fitted inhibition curve with a large enough effect; inconclusive means small, poorly fitted or top-dose-only effect, or effect the other way; inactive means flat fitted curve, though single readings scatter; tested in HEK293 cells; note: % is set by controls: 0 for no effect and ±100 for the full control effect; nearly all actives have a fitted effect of over 50% in size; luciferase read-out
Marburg entry inh: qHTS for inhibitors of binding or entry into cells for Marburg Virus. Marburg virus pseudotyped entry inhibition, cell reporter; control for the full effect not named in the record; about a third of the inactives were read at about 46 µM. 300,000 compounds, 1.8% hits. Potency, µM (highest dose often 37.8 µM), for inactives: at the highest dose activity change, negative = inhibition, actives largely listed as inhibitors; active = well fitted inhibition curve with a large enough effect; inconclusive = small, poorly fitted or top-dose-only effect, or effect the other way; inactive = flat fitted curve, though single readings scatter; tested in HEK293 cells; about a fifth of its hits are not listed in these tables; note: % is set by controls: 0 for no effect and ±100 for the full control effect; luciferase read-out
RE007 growth inh: qHTS Assay for Inhibitors of the HIV-1 protein Vpr; 360,000 compounds, 0.21% hits; AID 651644, 2012; Potency, µM (doses to about 92.2 µM), for the others: at the highest dose activity change, negative = less growth; S. pombe RE007 Vpr strain, BacTiter-Glo ATP luminescence, 24 h; control for the full effect not named in the record; active = well fitted falling curve with a large enough effect; inconclusive = small, poorly fitted or top-dose-only effect; inactive = no such curve, though single readings can be large or run the other way;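 note: % is set by controls: 0 for no effect and ±100 for the full control effect; nearly all actives have a fitted effect of over 50% in size; the assay follows cell death caused by Vpr and the record does not say whether a fall means rescue or toxicity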
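Fission yeast strain RE007, carrying one chromosomally integrated HIV-1 vpr copy, was seeded at OD 0.01 in PMG+AL medium with 23 nL pinned compound. After 24 h at 30 °C and 99% humidity, viability was read by BacTiter-Glo luminescence.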
2A StopGo: High Throughput Screening for Foot and Mouth Disease Virus Antivirals. Potency, µM (titrated, usually from 57.9 µM), inactives show at the highest dose signal change, negative = less light. human cells with a luciferase reporter of 2A StopGo recoding; control for the full effect not named in the record. 410,000 compounds, 1.2% hits; active = well fitted falling curve with a large enough effect; inconclusive = small, poorly fitted or top-dose-only effect; inactive = no such curve, though single readings can be large or run the other way; tested in HEK293T cells; note: % is set by controls: 0 for no effect and ±100 for the full control effect; nearly all actives have a fitted effect of over 45% in size; luciferase light after 4 h
Cruzain inh noDet: qHTS Assay for Promiscuous and Specific Inhibitors of Cruzain (without detergent); 200,000 compounds, 2.3% hits; Cruzipain (Trypanosoma cruzi), P25779; purified cruzain, Z-FR-AMC fluorescence, no detergent; Potency, µM, for inactives: max response, negative = inhibition, actives largely listed as inhibitors; AID 1476, 2009;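 note: plate controls were enzyme without inhibitor for no effect and buffer without enzyme for full effect; nearly all actives have a fitted effect of over 40% in size; top concentration of the series not given in the record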
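Detergent-free condition (0.00005% Triton X-100) in acetate buffer pH 5.5 with DTT. 1.5 nM enzyme and compound were pre-mixed 15 min, then 2 uM Z-FR-AMC substrate added; reaction progress from fluorescence change between first and third reads (60 s).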
* hit, by the source's call; ? = inconclusive; . = no result given; & = joins results of further samples; [ ] = remark or other dose. Unless noted, calls come from the whole dose curve; as a rule, active = well fitted curve in the direction sought with a large enough effect; inconclusive = small, poorly fitted or top-dose-only effect, or another doubt; inactive = no such curve, though single readings can be large; an effect the other way counts as inactive or inconclusive. Potency is the fitted concentration of half-maximal effect.

SMILES | Cruzain Triton | SARS PLpro yeast | NS1 function inh | Lassa entry inh | Marburg entry inh | RE007 growth inh | 2A StopGo | Cruzain inh noDet
Cc1ccc(C(C(=O)NC(C)(C)C)N(C(=O)c2csnn2)c2ccccc2F)o1 (stereo not given) | 3.3% | 0% | -7% | ? | 28% | -15% | 24% | -3%
COCC1=C(C(=O)OC)C(c2cccs2)n2ncnc2N1 (stereo not given) | . | 1% | -3% | 8% | 1%[46.1 µM] | 1% | -16% | .
O=C1C2C3C=CC(C3)C2C(=O)N1c1cccc(N2C(=O)C3C4C=CC(C4)C3C2=O)n1 (stereo not given) | 6.4% | 3% | ? | 4% | 9% | 8% | -4% | -14%
O=C(NCc1ccco1)c1cccc(Nc2nc3ccc(Br)cc3[nH]2)c1 | -12% | -3% | 16% | . | . | -3% | -7% | -7%
O=C1c2ccccc2C(=O)N1Cc1nc2ccccc2c(=O)n1-c1ccc(Br)cn1 | 6.9% | -5% | -92% | -5% | 6% | 150% | -29% | 1%
O=C(COc1ccccc1O)N1CCN(C(=O)c2ccco2)CC1 | 3.0% | 1% | -7% | 1% | 8% | -18% | 9% | -7%
CC(C)(C)C(=O)NC(NC(=S)Nc1sc2c(c1C#N)CCCC2)C(Cl)(Cl)Cl (stereo not given) | -9.5% | 0% | ? | 1% | -28% | 2% | -23% | ?
CNC(=O)COC(=O)c1cc(SC)ccc1Cl | . | -8% | . | 4% | 3% | 5% | -1% | .
Cc1ccc(N2CN(S(=O)(=O)c3cccc([N+](=O)[O-])c3)c3nc4ccccc4nc32)cc1 | . | 4% | 3% | 17% | -2% | 22% | -4% | .
Cc1cc(-c2nc3ncccc3o2)ccc1NC(=O)c1ccc([N+](=O)[O-])o1 | . | . | . | 12% | 14%[46.1 µM] | 0% | 17% | .
O=C(Nc1ccc(Cl)c(Cl)c1)OCc1cnc(Cl)s1 | -11% | 0% | 14% | 17% | -7% | 1% | 4% | -6%
COc1ccc(S(=O)(=O)N(CC(=O)NCc2cccnc2)C2CCCCC2)cc1OC | . | 1% | -2% | . | . | -25% | 6% | .
COc1ccc(C(=O)Nc2ccc(NC(=O)c3ccco3)c(Cl)c2)cc1OC | 5.4% | -3% | -3% | -11% | -18% | -3% | 10% | -8%
C=CCNC(=S)NCc1cccnc1 | 1.0% | 5% | 8% | -24% | 2% | 7% | -23% | 1%
CCOC(=O)/C=c1\s/c(=C\c2ccc(-c3ccccc3)cc2)c(=O)n1CC(=O)NCc1ccc2c(c1)OCO2 | -3.4% | -17% | 11µM* | 9% | 17% | . | -8% | 2.5µM*
COc1ccc(/C=N/NC(=O)c2ccncc2)c(C(=O)O)c1OC | . | -3% | 2% | 19%[46.1 µM] | 1%&1%[46.1 µM] | 17% | -8% | .
COC(=O)C1=NNC2(c3ccc(Cl)cc3)C(=O)N(c3ccccc3)C(=O)C12 (stereo not given) | -5.5% | -3% | -1% | 14% | 16% | 12% | 0% | -3%
CCCCCN(C(=O)CCC(=O)OCc1cc(C)ccc1C)c1c(N)n(CCCC)c(=O)[nH]c1=O | . | -1% | . | ? | ? | 11% | -17% | .
COc1ccc(N2CCN(C(=O)CSc3nc(-c4ccccc4)no3)CC2)cc1 | 0.1% | . | . | ? | . | . | -8% | 1%
CCC(CC)C(=O)Nc1ccc(OCc2cc(=O)n3c4c(sc3n2)CCCC4)cc1 | -0.8% | . | . | 8%[46.1 µM] | -2%[46.1 µM] | . | -17% | -6%
Cc1ccc(S(=O)(=O)Nc2ccc(O)c3ncccc23)cc1 | . | ? | 2% | . | . | -7% | -11% | .
COc1ccc(C(=O)C2CCCN(C(=O)c3ccc(OC)o3)C2)c(C)c1 (stereo not given) | . | . | . | ? | ? | -4% | -26% | .
O=C(Nc1nnc(SCc2cccnc2)s1)C1CC(=O)N(c2ccc(F)cc2)C1 (stereo not given) | . | ? | 19% | -3% | 1% | -13% | 1% | .
O=C(CNS(=O)(=O)c1cccc2nonc12)NCc1ccc(F)cc1 | -1.8% | 0% | -4% | -19% | 2% | -13% | 2% | 6%
c1ccc(CCn2nnnc2CN2CCC(n3nnc4ccccc43)CC2)cc1 | 1.7% | -6% | -4% | 8% | 6% | -4% | -14% | 8%

Exported as tab-separated lines: entries from further up
SMILES	Cruzain Triton	SARS PLpro yeast	NS1 function inh	Lassa entry inh	Marburg entry inh	RE007 growth inh	2A StopGo	Cruzain inh noDet
COc1ccc(C(=O)C2CCCN(C(=O)c3ccc(OC)o3)C2)c(C)c1 (stereo not given)	.	.	.	?	?	-4%	-26%	.
O=C(Nc1nnc(SCc2cccnc2)s1)C1CC(=O)N(c2ccc(F)cc2)C1 (stereo not given)	.	?	19%	-3%	1%	-13%	1%	.
O=C(CNS(=O)(=O)c1cccc2nonc12)NCc1ccc(F)cc1	-1.8%	0%	-4%	-19%	2%	-13%	2%	6%

Returning to the listing; the four compounds before the break are reprinted first.
SMILES | Cruzain Triton | SARS PLpro yeast | NS1 function inh | Lassa entry inh | Marburg entry inh | RE007 growth inh | 2A StopGo | Cruzain inh noDet
COc1ccc(C(=O)C2CCCN(C(=O)c3ccc(OC)o3)C2)c(C)c1 (stereo not given) | . | . | . | ? | ? | -4% | -26% | .
O=C(Nc1nnc(SCc2cccnc2)s1)C1CC(=O)N(c2ccc(F)cc2)C1 (stereo not given) | . | ? | 19% | -3% | 1% | -13% | 1% | .
O=C(CNS(=O)(=O)c1cccc2nonc12)NCc1ccc(F)cc1 | -1.8% | 0% | -4% | -19% | 2% | -13% | 2% | 6%
c1ccc(CCn2nnnc2CN2CCC(n3nnc4ccccc43)CC2)cc1 | 1.7% | -6% | -4% | 8% | 6% | -4% | -14% | 8%
O=c1[nH]c2c(=O)[nH]cnc2nc1-c1ccccc1 | . | . | . | ? | 2%[46.1 µM] | 0% | -15% | .
Cc1ccc(Cl)cc1-n1ncc2c(N3CCN(Cc4ccccc4)CC3)ncnc21 | 1.9% | . | . | 6%[46.1 µM] | . | . | 3.2µM* | -4%
Cc1cc(C)nc(-n2nc(C)c3c2NC(=O)CC3c2cccc(O)c2)n1 (stereo not given) | -0.2% | . | . | 2%[46.1 µM] | 2%[46.1 µM] | . | -17% | 13%
O=C(NN=Cc1ccccc1C(=O)O)C(=O)NN=Cc1ccccc1C(=O)O | . | . | . | 24%[46.1 µM] | -6%[46.1 µM] | 11% | -6% | .
CCn1c(COc2ccc(OC)cc2)nc2ccccc21 | 2.7% | 4% | -47% | 2% | -6% | -26% | 23% | 2%
COc1ccc(NC(=O)CC2C(=O)N(c3ccc(F)cc3)C(=O)N2Cc2ccc3c(c2)OCO3)cc1 (stereo not given) | -0.7% | . | . | -5%[46.1 µM] | 5%[46.1 µM] | . | -13% | -1%
Cc1ccc(N2CCN(/N=C/c3cccnc3)CC2)cc1 | . | -2% | 0% | -5%[46.1 µM] | 9%[46.1 µM] | -18% | -15% | .
CCCCCCc1cc2cc(S(=O)(=O)c3ccc(F)cc3)c(=O)oc2cc1O | -6.5% | 12% | -7% | -2% | 1% | 1% | ? | 25µM*
COc1cccc(CC(NC(C)=O)C(=O)NC2CCN(C(=O)c3ccncc3)CC2)c1OC (stereo not given) | . | 5% | 8% | . | 13%[46.1 µM] | -18% | 16% | .
COc1ccc(CCNC(=O)C2CC3Cn4c(nc5cc(Cl)c(Cl)cc54)C3N2C)cc1 (stereo not given) | . | 0% | 0% | . | . | -19% | 0% | .
CC(C)c1cc(=O)[nH]c(SCC(=O)NC2CCCC2)n1 | . | 0% | -4% | . | . | 5% | 24% | .
COc1cc(CCC(=O)N2CCN(c3ccc(N4CCOCC4)nn3)CC2)cc(OC)c1OC | -8.4% | -8% | -14% | . | -3% | . | . | -1%
COc1ccccc1C(=O)NNC(=O)C(=O)Nc1ccc(C)c(Cl)c1 | . | -3% | -48% | 1% | ? | ? | 0% | .
Cc1ccc(C)c(OCC(=O)NC(Cc2c[nH]c3ccccc23)C(=O)O)c1 (stereo not given) | . | 1% | -1% | 0%[46.1 µM] | 1%[46.1 µM] | 5% | -6% | .
COc1cc(C(=O)Nc2ccc(OCc3cc(=O)n4cccc(C)c4n3)cc2)cc(OC)c1OC | -1.6% | . | . | -20%[46.1 µM] | . | . | 0% | ?
CCCCOc1ccc(C(=O)Nc2ccc3c(c2)CCCN3C(=O)c2cccs2)cc1 | 1.6% | . | . | ? | . | . | 25µM* | -2%
COC(=O)C1CCN(C(=O)c2sc3nc(-c4ccc(F)cc4)cn3c2C)CC1 | 0.5% | -1% | -9% | ? | 6%&6% | 10% | 7% | 7%
N#CC1(c2ccc(NC(=O)c3ccccc3)cc2)CCCC1 | -1.2% | -9% | 3% | . | . | . | . | -8%
O=C(CN1CCSC1=O)N1CCN(S(=O)(=O)c2ccc(Cl)cc2)CC1 | . | -3% | . | 0% | 3% | -6% | ? | .
CCCNc1ncnc2onc(C)c12 | -1.2% | 0% | -5% | 19%[46.1 µM] | . | -9% | -2%&-9% | -12%
CCN1CCN(CCCN(Cc2ccco2)C(=S)Nc2cc(Cl)ccc2C)CC1 | . | 2% | -5% | -22% | -3%[46.1 µM] | -6% | 6% | .
CN1CCC(Oc2ccc(Sc3ccccc3)cc2)CC1 | 0.2% | -3% | -28% | ? | ? | 18% | 18% | 19%
CCOc1ccc(-n2cnnn2)cc1S(=O)(=O)NCCc1ccc(OC)c(OC)c1 | 7.0% | -2% | -10% | 1% | 11% | 7% | . | 1%
COc1ccc(/C=C/CN2CCN(Cc3cccc(OC)c3)C(CCO)C2)cc1 (stereo not given) | . | 0% | 2% | 6%[46.1 µM] | -23%[46.1 µM] | -7% | 9% | .
